# Screens deposited in PubChem by National Center for Advancing Translational Sciences (NCATS).
# VDR inhibitor: Inhibitors of the vitamin D receptor (VDR): qHTS. VDR-SRC2-3 peptide fluorescence polarization, 2 h. Potency, µM, for the others: max response, negative = inhibition, actives largely listed as inhibitors. hit rate 0.93% among 400,000. AID 504847, 2011; active = well fitted inhibition curve with a large enough effect; inconclusive = small, poorly fitted or top-dose-only effect, or another doubt; inactive = no such curve, though single readings can be large or run the other way; also: series mostly up to about 120 µM
# Target sequence (P11473 whole entry, looked up): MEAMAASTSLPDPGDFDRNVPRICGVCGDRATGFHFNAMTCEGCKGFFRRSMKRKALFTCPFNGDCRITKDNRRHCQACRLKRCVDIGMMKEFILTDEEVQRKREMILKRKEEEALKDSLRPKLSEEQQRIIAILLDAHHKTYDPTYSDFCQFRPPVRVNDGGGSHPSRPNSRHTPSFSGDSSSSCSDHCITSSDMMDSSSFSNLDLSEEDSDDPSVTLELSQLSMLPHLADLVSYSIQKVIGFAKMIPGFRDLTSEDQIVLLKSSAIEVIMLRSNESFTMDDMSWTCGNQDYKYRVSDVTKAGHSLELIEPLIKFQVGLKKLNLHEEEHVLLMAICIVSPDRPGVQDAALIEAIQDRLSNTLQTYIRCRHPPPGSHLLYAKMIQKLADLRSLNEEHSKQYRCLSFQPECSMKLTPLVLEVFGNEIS
#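 VDR–SRC2-3 interaction, FP format. Cmpds 23 nl via pintool, brief spin, 2 h ambient incubation.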
# * marks the source's active call; other numbers are inactive results; ? = inconclusive; [ ] = remark or other dose. % is scaled to controls: 0 for no effect and ±100 for the full control effect; potency is read from the fitted curve at half-maximal effect. This is a subset, so the mix of outcomes need not match the whole.
VDR inhibitor | smiles
9% | CC[C@]12c3[nH]c4cc(CCC(=O)N(C)C)ccc4c3CCN1C(=O)[C@@H](CC(=O)NC(C)(C)C)C[C@@H]2C(=O)N1CCN(C(=O)C2CC2)CC1
? | COc1ccccc1NC(=O)c1cc2cc(Br)ccc2cc1O
-10% | Cc1ccccc1NC(=O)CSc1nc2ncc(Cl)cc2[nH]1
-1% | COc1ccc(NC(=O)c2cc(-c3ccc(OC)c(OC)c3)on2)cc1OC
2% | CC(C)C[C@@H](CC(=O)N[C@@H](CCC(=O)O)CC(=O)O)NC(=O)[C@@H]1CNCC[C@H]1NC(=O)C[C@@H](NC(=O)C[C@H](Cc1ccccc1)NC(=O)[C@@H]1CCCC[C@H]1N)C(C)C
10% | O=C(CSCc1cnn(-c2ccccc2)c1-n1cccc1)NCc1cccc(Cl)c1
-9% | CCSc1nnc(NC(=O)CCn2c(=O)oc3ccccc32)s1
-17% | O=C(C1COc2ccccc2O1)N1CCN(c2ccccc2Cl)CC1 (stereo not drawn)
-6% | COc1ccc(C(=O)NCCCN2CCOCC2)cc1OC
-3% | CC(C)(C)NC(=O)NC(=O)CN1CCN(c2ccc(O)cc2)CC1
1% | COc1ccc(C2=Nn3c(nnc3-c3ccccc3F)SC2)cc1OCC1CC1
-6% | CCc1noc(C)c1C(=O)N(CCC(C)C)c1c(N)n(Cc2ccccc2)c(=O)[nH]c1=O
14% | CCOc1ccc(-c2cc(C(=O)Oc3ccc(C#N)cc3)no2)cc1
79µM* | O=C(/C(=C/c1cccc(Cl)c1)c1nc2ccccc2[nH]1)c1ccccc1
-3% | COC(=O)c1cccc(NC(=O)COc2cccc([N+](=O)[O-])c2)c1
-7% | CCO/C(C)=N/n1c2nc3ccccc3nc2c2c(=O)n(CC(C)C)c(C)nc21
7% | COc1ccc(OCc2nnc(NC(=O)Nc3ccccc3F)s2)cc1
-6% | O=C(Nc1cccc(NC(=O)c2ccco2)n1)c1ccco1
5% | Fc1ccc(Nc2nc(SCc3ccccc3Cl)nc3ccccc23)cc1
7% | O=C(NNC(=O)c1cccs1)c1cccc(F)c1

# Next section.
VDR inhibitor | smiles
-12% | C/C(=N/NC(=O)c1ccc2c(c1)OCO2)c1ccc(NC(=O)c2ccc(F)cc2)cc1
? | CC(C)N=C1NN=C(c2ccc(F)cc2)CS1
13% | CN(CCCN1CCOCC1)Cc1nc(-c2ccccc2)no1
13% | CCOc1ccc(CCNC(=O)C2CC(C)=CCC2C(=O)O)cc1OCC (stereo not drawn)
-6% | CSC1=C(C#N)C(C)CC(=O)N1 (stereo not drawn)
-10% | Cc1ccnc(NS(=O)(=O)c2ccc(NC(=O)CN3C(=O)c4ccccc4S3(=O)=O)cc2)n1
6% | O=[N+]([O-])c1ccc(Cl)c(C[n+]2cccc3ccccc32)c1
1% | CCn1c(-c2ccc[nH]c2=O)nc2ccccc21
-2% | O=C(Nc1ccccc1[N+](=O)[O-])c1nc[nH]c1C(=O)NCCO
9% | CC(C)C[C@H](NC(=O)OC(C)(C)C)C(=O)N1CCC(C(=O)N[C@@H](Cc2ccccc2)C(=O)O)CC1
-21% | COc1cccc(-n2c(C)nn(CCOc3ccccc3)c2=O)c1
-6% | O=C(CCN1CCN(c2ccccc2F)CC1)Nc1ccc(F)cc1
-13% | CSCCC(NC(=O)c1ccccc1)C(=O)N1CCCCCCC1 (stereo not drawn)
-1% | CCN(CC)CCNc1nc(-c2cccs2)c(CC(=O)O)s1
2% | O=C(CCCn1c(=O)[nH]c2cc(Cl)ccc2c1=O)NC1CCCCCCC1
4% | COc1ccc(N/C(N)=N/c2nc(C)cc(C)n2)c(OC)c1
-15% | COc1cc(-c2nnc(SC(C)C(=O)Nc3c(C)n(C)n(-c4ccccc4)c3=O)o2)cc(OC)c1OC (stereo not drawn)
11% | CC(C)NS(=O)(=O)c1ccc(NC(=O)C(C)OC(=O)CCCOc2ccccc2)cc1 (stereo not drawn)
-10% | O=C(c1ccc(-c2cccc([N+](=O)[O-])c2)o1)N1CCN(c2ccc([N+](=O)[O-])cc2)CC1
-9% | CCCCCn1c(=N)c(S(=O)(=O)c2ccccc2)cc2c(=O)n3ccccc3nc21

# Quoted from the listing:
# Under VDR inhibitor, `COc1cc(-c2nnc(SC(C)C(=O)Nc3c(C)n(C)n(-c4ccccc4)c3=O)o2)cc(OC)c1OC` (stereo not drawn) is listed with -15%
# Under VDR inhibitor, `O=C(CCN1CCN(c2ccccc2F)CC1)Nc1ccc(F)cc1` is listed with -6%
# Under VDR inhibitor, `CN(CCCN1CCOCC1)Cc1nc(-c2ccccc2)no1` is listed with 13%
# Under VDR inhibitor, `Cc1ccnc(NS(=O)(=O)c2ccc(NC(=O)CN3C(=O)c4ccccc4S3(=O)=O)cc2)n1` is listed with -10%

# (list continues)
VDR inhibitor | smiles
15% | CC(NC(=O)Cc1ccccc1)c1ccccc1 (stereo not drawn)
-8% | O=C(Nc1ccc(C(=O)N2CCOCC2)cc1)Nc1cccc(Cl)c1
-11% | CCCCOC(=O)Nc1cc(OC)c(Cl)cc1OC
-14% | Cc1ccc(NC(=O)CSCC(=O)Nc2cc(Cl)ccc2N2CCOCC2)cc1
5% | O=C(Cn1nc(-c2ccccc2F)ccc1=O)NCc1ccc2c(c1)OCO2
5% | COc1ccc(Cl)cc1C(=O)Nc1ccc(NC(C)=O)cc1
15% | Cc1ccc(S(=O)(=O)N2CCOCC2)cc1NC(=O)COC(=O)Cc1ccc(Cl)cc1
-28% | COc1ccc(COC(=O)C2=C(C)NC(=O)NC2c2cc(Br)c(O)c(OC)c2)cc1 (stereo not drawn)
-18% | COc1ccc(CNC(=O)c2ccc3c(c2)N(C)C(=O)CS3=O)cc1 (stereo not drawn)
-5% | Cc1nc2ccc(NC(=O)c3ccc(Cl)c(S(=O)(=O)N(C)c4ccccc4)c3)cc2s1
14% | CCN1CCN(c2cc(C)c3cc(NC(=S)N4CCC5(CC4)OCCO5)ccc3n2)CC1
-16% | O=C(CC(=O)NCc1cccnc1)NCc1cccnc1
15% | Cc1nn(C)c2c1c(C(F)(F)F)cc(=O)n2C(C)C(=O)NCCC(C)C (stereo not drawn)
10% | O=C(NCC1CCCO1)c1cc2c(s1)CCCC2 (stereo not drawn)
3% | CCCCOc1ccc(CNC(=O)NS(=O)(=O)c2ccc(OCC)cc2)cc1
4% | CC(C)CCN1CCN(CCCn2cccn2)CC1CCO (stereo not drawn)
-13% | NC(=O)COc1ccc(-c2noc(COc3ccc(Cl)cc3)n2)cc1
-2% | O=S(=O)(NCC(c1ccco1)N1CCN(c2ccccc2F)CC1)c1ccccc1 (stereo not drawn)
2% | CCCCN(C(=O)Cc1ccc(S(=O)(=O)N2CCOCC2)s1)c1ccccc1
-12% | N#C/C(=C\c1ccncc1)c1nc2ccccc2o1

# The last two entries of the part above lead into the next:
VDR inhibitor | smiles
2% | CCCCN(C(=O)Cc1ccc(S(=O)(=O)N2CCOCC2)s1)c1ccccc1
-12% | N#C/C(=C\c1ccncc1)c1nc2ccccc2o1
15% | COc1ccccc1NC(=O)c1cc(S(=O)(=O)N2CCCCCC2)ccc1F
10% | CCOC(=O)Cc1csc(SC(C)C(=O)Nc2ccc(NC(C)=O)cc2)n1 (stereo not drawn)
? | C/C(=N\NC(=S)Nc1c(C)cccc1C)c1ccc(OC(F)F)cc1
5% | Cc1ccc(CNS(=O)(=O)c2cc(C(=O)Nc3ccc(C(C)C)cc3)ccc2F)cc1
-5% | O=C1OC(C(=O)O)Cc2ccccc21 (stereo not drawn)
-16% | S=C(NC1CC1)N1CCc2ccccc2C1
-3% | Cc1ccc(/C=N/c2sc3c(c2C#N)CCC3)s1
-2% | Cc1cccn2c(/C=N/OCc3ccc(F)cc3)c(-c3ccc(Cl)cc3)nc12
4% | CSC1=C(C#N)C2(CCCCC2)C(C(=O)Nc2ccccc2)=C(C)N1
3% | Nc1nonc1-c1noc(N2CCOCC2)n1
8% | NC(=O)NC(=O)C(c1ccccc1)N1CCN(S(=O)(=O)c2ccc(Br)s2)CC1 (stereo not drawn)
-2% | Cc1ccc(S(=O)(=O)Nc2ccc3nc(N)sc3c2)cc1
-6% | CC(Cl)C(=O)NNC(=O)CNS(=O)(=O)c1ccccc1 (stereo not drawn)
-19% | COc1ccc(OC)c(S(=O)(=O)NCCCN2CCCC2=O)c1
3% | CCOC(=O)N1CCC(NS(=O)(=O)c2ccc(NC(C)=O)c(Cl)c2)CC1
-8% | O=C(Nc1ccc(S(=O)(=O)Nc2ccccn2)cc1)c1cccc(Br)c1
11% | CN(C)C(=S)NC1(C)CCS(=O)(=O)C1 (stereo not drawn)
12% | Cc1cccc(-c2nc(Cn3c(SCc4cccc(C(F)(F)F)c4)nc4ccncc43)c(C)o2)c1
? | Cc1cccc(NC(=O)COc2ccc(/C=C\c3[nH]c(=O)[nH]c(=O)c3[N+](=O)[O-])cc2)c1
5% | Cc1ccc2nc(C)cc(N3CCOCC3)c2c1

# Next results follow.
VDR inhibitor | smiles
7% | Cc1ccccc1N1CCN(C(=O)CCN2C(=O)c3ccccc3C2=O)CC1
-8% | O=C(NCC1CCCO1)/C(=C/c1ccc(Cl)cc1)NC(=O)c1ccccc1 (stereo not drawn)
-27% | O=C(Nc1ccc(Br)cc1)c1cc2nc(-c3ccccc3)cc(-c3ccccc3)n2n1
2% | O=C(Nc1cccc(S(=O)(=O)N2CCCCC2)c1)c1ccc2c(=O)n3c(nc2c1)CCCCC3
11% | COc1cc(NC(=O)c2nnn(CC(=O)Nc3cc(C)ccc3C)c2N)cc(OC)c1
0% | CC(=O)c1ccccc1C(=O)N1CCCC(N2CCN(Cc3ccc4c(c3)OCO4)CC2)C1 (stereo not drawn)
-6% | O=C(NNc1cccc(Cl)n1)Nc1cccc(Cl)c1
-10% | COc1ccc(-c2cc(C(F)(F)F)n3ncc(C(=O)NCC4CCCO4)c3n2)cc1 (stereo not drawn)
-12% | Cc1cc(C(=O)N/N=C/c2ccc(-c3cccc(Br)c3)o2)n[nH]1
3% | COCCNc1nc(-c2ccc(OC)cc2)c(-c2ccc(OC)cc2)s1
8% | CCCC(c1nnnn1Cc1cccs1)N1CCN(c2ccc(OC)cc2)CC1 (stereo not drawn)
7% | CCc1cccc(C)c1NC(=O)C1CCN(S(=O)(=O)c2c(C)noc2/C=C/c2c(C)cc(C)cc2C)CC1
-12% | CCOC(=O)Cc1csc(NC(=O)Nc2ccc(Cl)cc2)n1
20% | COc1ccc(C)cc1-n1cnc2cc(C(=O)NC3CCCC3)ccc21
0% | COc1cc2cc(CN(Cc3nnnn3Cc3ccccc3)CC3CCCO3)c(=O)[nH]c2cc1OC (stereo not drawn)
-1% | CCc1c(C)nc(N2CCN(c3ccccc3)CC2)[nH]c1=O
8% | Cc1ccc(C)c(OCCC(=O)N2CCN(S(=O)(=O)c3ccc([N+](=O)[O-])cc3)CC2)c1
-15% | COCC(=O)N[C@@H]1c2cc(OC)c(OC)cc2C[C@H]1OCc1ccccc1
-7% | COc1cccc(-n2c(C)nn(C)c2=O)c1
-7% | CCOC(=O)c1cc(-c2ccccc2)sc1NC(=O)CC(C)C

# The listing continues.
VDR inhibitor | smiles
-1% | O=C1CC(c2ccccc2)CC(O)=C1C=Nc1ccccc1 (stereo not drawn)
-7% | CCOc1ccccc1CN1CCC(Oc2cccc(C(=O)NCCOC)c2)CC1
4% | CCOC(=O)c1cnc2ccc(C)cc2c1Nc1ccc(OCc2ccccc2Cl)cc1
1% | Cc1ccc(CNC(=O)c2ccc(N3CCCC3=O)cc2)cc1
17% | COc1ccc(CCNC(=O)CSc2cn(CCNC(=O)c3ccccc3F)c3ccccc23)cc1OC
-10% | Cc1cnc(C(=O)N2CCN(S(=O)(=O)c3ccc4ccccc4c3)CC2)cn1
21% | Cc1ccc(C(=O)COC(=O)c2ccccc2N2C(=O)C3C4CCC(C4)C3C2=O)cc1C (stereo not drawn)
37%[activator] | O=C1CN(C(=O)COC(=O)COc2ccc3c(c2)CCC3)c2ccccc2N1
4% | Cc1cccc(NC(=O)CCn2nc(-c3ccccc3)c3ccccc3c2=O)c1
6% | O=C(COC(=O)c1cccc(NC(=O)c2ccc(Br)cc2)c1)c1ccc(Br)cc1
-9% | COc1ccc(Br)c(C(=O)NC2CCCC2)c1
11% | CCC(=O)N1c2ccccc2CC1C(=O)NCc1cc(OC)ccc1OC (stereo not drawn)
-10% | COc1ccc(OC)c(-c2csc(NC(=O)CSCC(=O)Nc3cc(C)on3)n2)c1
13% | Cc1cc(NC(=O)c2cc3ncc(Br)cn3n2)no1
3% | CC(=O)Nc1ccc(NC(=O)/C=C/c2ccc3c(c2)OCO3)cc1
4% | O=C(CNC(=O)c1ccccc1F)OC(C(=O)Nc1cc(C(F)(F)F)ccc1Cl)c1ccccc1 (stereo not drawn)
-5% | COc1ccccc1NC1=NCC(=O)N1Cc1ccccc1
-7% | Cc1ccccc1C(=O)Nc1sc2c(c1C(=O)N1CCCCC1)CCC(C)C2 (stereo not drawn)
2% | CC(C)c1cc(C(=O)N/N=C/C(Br)=C/c2ccccc2)n[nH]1
-3% | Nc1nc2n(c1C(=O)c1ccccc1)CCC2

# Given as comma-separated lines: entries from further up
structure,VDR inhibitor
Cc1ccc(C(=O)COC(=O)c2ccccc2N2C(=O)C3C4CCC(C4)C3C2=O)cc1C (stereo not drawn),21%
O=C1CN(C(=O)COC(=O)COc2ccc3c(c2)CCC3)c2ccccc2N1,37%[activator]
Cc1cccc(NC(=O)CCn2nc(-c3ccccc3)c3ccccc3c2=O)c1,4%
O=C(COC(=O)c1cccc(NC(=O)c2ccc(Br)cc2)c1)c1ccc(Br)cc1,6%
COc1ccc(Br)c(C(=O)NC2CCCC2)c1,-9%

# (next part)
VDR inhibitor | smiles
-23% | CCOC(=O)c1ccc(NC(=O)c2cc3c(=O)n(C)c4ccccc4c3n2C)cc1
-8% | O=C(CNC(=O)c1ccccc1Br)N/N=C/c1ccco1
-8% | O=C(COC(=O)c1cc2ccccc2oc1=O)Nc1cccc(Br)c1
-1% | O=C(c1ccc(Oc2cc(Cl)cc(Cl)c2)o1)N1CCCCC1
6% | O=C(COC(=O)c1ccccn1)NCc1ccccc1
